Source: PubChem
Arbovirus inh – blocks arbovirus infection | arbovirus infection cell-based antiviral screen | inhibition, % at 10 µM | 200,000 tested, 0.37% active | AID 1251;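 active = inhibition from about 30%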;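 also: bluetongue infection of BSR cells; cell survival read as ATP light after 72 h; 0% = infected wells without compound and 100% = uninfected wells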
Mtb growth – M. tuberculosis H37Rv growth inhibitors, H37Rv strain (AID 1626). M. tuberculosis H37Rv growth inhibition; higher % means a stronger effect. one-dose inhibition, % at 10 µM; IC50 in µM for titrated hits. 220,000 tested, 0.95% active;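 active = confirmed in a dose series; inconclusive = inhibition above 80% but not taken into the dose series; inactive = below 80% or under 30% at every dose of the series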;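 also: bacteria incubated seven days before Alamar blue readout; 0% = bacteria only wells and 100% = bacteria with antibiotic wells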
YopH PTP inh – YopH (Yersinia) phosphatase inhibition; fluorescence Ex485/Em525; inhibition, %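 (about 10 µM by stock and volumes)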; 140,000 tested, 0.16% active; AID 898;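 active = inhibition of 50% or more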;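 also: controls were vehicle for no effect and minimum signal wells for full effect; inactives centre near -20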
Mtb betalactam – beta-lactam sensitization of Mtb H37Rv | inhibition, % at 25 µM | AID 434955 | 330,000 tested, 0.27% active | M. tuberculosis H37Rv growth with meropenem, percent inhibition; hits of this screen are not shown here;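 active = about 74% or more and at least 40 points above the plate without the antibiotic, then above 30% in a dose series; inconclusive = first-round hits that could not be retested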;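 also: growth measured after seven days incubation then overnight dye step; 0% = bacteria only wells and 100% = bacteria with antibiotic; twin plates without the antibiotic show which effects depend on it; some results filed as inactive read as strong as hits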
RecA splice inh – blocks M. tuberculosis RecA intein splicing | AID 2221 | 290,000 tested, 0.75% active | cell-free RecA intein splicing, fluorescence | P9WHJ3 | inhibition, %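 (about 9 µM by stock and volumes)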; in the data active = inhibition above about 30%; inconclusive = no clear call, values can overlap the other calls;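 also: 0% = vehicle wells and 100% = reference inhibitor control wells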
Target sequence (P9WHJ3 whole entry, looked up, canonical isoform): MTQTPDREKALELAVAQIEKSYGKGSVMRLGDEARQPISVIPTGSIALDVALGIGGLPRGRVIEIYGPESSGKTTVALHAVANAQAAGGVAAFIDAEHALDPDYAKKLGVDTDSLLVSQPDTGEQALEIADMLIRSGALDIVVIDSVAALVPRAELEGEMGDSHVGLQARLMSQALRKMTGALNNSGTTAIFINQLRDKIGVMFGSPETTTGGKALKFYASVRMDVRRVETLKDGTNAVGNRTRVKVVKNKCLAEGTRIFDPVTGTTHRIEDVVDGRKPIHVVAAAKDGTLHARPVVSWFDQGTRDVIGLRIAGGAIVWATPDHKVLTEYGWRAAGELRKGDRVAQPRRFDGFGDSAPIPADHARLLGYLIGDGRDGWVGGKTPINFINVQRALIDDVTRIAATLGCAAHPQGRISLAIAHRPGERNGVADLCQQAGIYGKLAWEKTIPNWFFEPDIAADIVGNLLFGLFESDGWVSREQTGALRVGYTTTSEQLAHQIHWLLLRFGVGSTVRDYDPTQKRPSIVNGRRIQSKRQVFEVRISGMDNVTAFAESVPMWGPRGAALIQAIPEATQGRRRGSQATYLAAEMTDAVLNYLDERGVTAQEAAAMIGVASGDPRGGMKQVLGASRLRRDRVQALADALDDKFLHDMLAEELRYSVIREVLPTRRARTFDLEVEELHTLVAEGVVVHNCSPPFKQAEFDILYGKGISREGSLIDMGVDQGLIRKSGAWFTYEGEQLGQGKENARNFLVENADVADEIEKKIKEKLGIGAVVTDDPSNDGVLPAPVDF
Arbovirus inh repeat – also measured in Arbovirus inh; calls as there; inhibition, %; measured here: 10K subset replicate screen; many hits read low in the repeat;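 first of two repeat runs on a subset; 0% = infected and 100% = uninfected wells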
Active calls of the source: *; ? = inconclusive; . = no result given. Some of the compounds tested; the hit share may differ from the screen's.

SMILES | Arbovirus inh | Mtb growth | YopH PTP inh | Mtb betalactam | RecA splice inh | others
Cc1ccc(NC(=O)CSc2nnc(Cc3cccn3C)n2-c2ccc(F)cc2)c(C)c1 | -2 | -5% | -26 | -1 | 3.4 | Arbovirus inh repeat=3
COc1c(CC=C(C)C)cc(C2CC(=O)c3c(O)cc(O)cc3O2)c(CC=C(C)C)c1O (centres undefined) | . | -6% | . | -3 | 3.0
Cc1c(OCC(=O)N[C@@H](Cc2ccccc2)C(=O)O)ccc2c1oc(=O)c1ccccc12 | . | . | . | -3 | 6.7
O=C(O)CCSCC(=O)c1ccc2c(c1)OCCO2 | 2 | -12% | -12 | -10 | 0.1
COc1cc(COCC(O)CN2CCN(Cc3ccccc3)CC2)cc(OC)c1OC (centres undefined) | -7 | 1% | . | -4 | -0.8
CS(=O)(=O)N(CC(=O)NCc1ccccc1Cl)C1CCCCC1 | -1 | 2% | -34 | -3 | -2.2
Cc1sc2ncnc(Sc3nnc4sc5ccccc5n34)c2c1C | 6 | 7% | -16 | -5 | 3.4 | Arbovirus inh repeat=4
C=CCn1c(O)c(C=Nc2ccc(N(CC)CC)cc2)c(=O)[nH]c1=O | 12 | -2% | -15 | 2 | -3.1
CCc1ccc(NC(=O)CSc2nnc(-c3ccccn3)n2C)cc1 | -2 | >100µM* | -51 | 76 | 0.4
COc1ccc(/C=C/C(=O)NCCCN2CCCCCC2)cc1 | . | . | . | -13 | -1.7
COc1cccc(/C=N/NC(=O)c2cccc([N+](=O)[O-])c2)c1OS(=O)(=O)c1ccccc1 | 6 | -6% | -18 | 1 | 6.3
CC(C)c1ccccc1NC(=O)COC(=O)CNC(=O)c1ccc(Br)cc1 | 11 | 7% | -35 | 3 | 0.1
O=C(CCc1ccccc1)Nc1nnc(-c2cccs2)o1 | -5 | ? | . | 58 | -2.5 | Arbovirus inh repeat=-9
Cc1nnc(NC(=O)CSc2nc3c(c(=O)n2C)SC(C)C3)s1 (centres undefined) | 1 | 9% | -21 | 3 | 2.3 | Arbovirus inh repeat=6
O=C(c1cccc(C(F)(F)F)c1)N1CCN(C2CCCCC2)CC1 | -4 | 6% | -8 | 1 | -1.0

The closing two entries of the part before open the next one.
SMILES | Arbovirus inh | Mtb growth | YopH PTP inh | Mtb betalactam | RecA splice inh | others
Cc1nnc(NC(=O)CSc2nc3c(c(=O)n2C)SC(C)C3)s1 (centres undefined) | 1 | 9% | -21 | 3 | 2.3 | Arbovirus inh repeat=6
O=C(c1cccc(C(F)(F)F)c1)N1CCN(C2CCCCC2)CC1 | -4 | 6% | -8 | 1 | -1.0
COc1cccc(/C=C2\Sc3ccc(C(=O)NCc4cccnc4)cc3N(C)C2=O)c1 | -8 | 2.8µM* | . | 99 | -0.8
CCOc1ccc(N2C(=O)CC(N(O)c3ccccc3)C2=O)cc1 (centres undefined) | 3 | . | 48 | 88 | -2.0
CC(=O)SC1CC(=O)N(c2c(C)cccc2C)C1=O (centres undefined) | . | -2% | . | 2 | 4.6
O=C(CC1NCCc2ccccc21)Nc1ccccc1Cl (centres undefined) | 2 | 0% | . | 2 | -2.3
CCOC(=O)C1(Cc2ccccc2)CCN(Cc2cccn2-c2cccnc2)CC1 | 11 | -2% | . | -5 | -2.1
CC(C)[C@H](NC(=O)C1CCN(S(=O)(=O)c2ccccc2)CC1)C(=O)NCc1ccc(F)cc1 | . | . | . | -9 | 1.3
c1ccc(-n2nnnc2CN2CCOCC2)cc1 | -4 | 0% | -22 | -6 | .
COc1ccccc1C(=O)N/C(=C\c1cn(S(=O)(=O)N(C)C)c2ccccc12)C(=O)NCCN1CCOCC1 | . | . | . | 3 | -1.3
O=C(O)CCNC(=S)Nc1cccc(F)c1 | . | 0% | . | 1 | 0.1
CCCn1cc(CN2CCC(n3nccc3NC(=O)CCOc3ccccc3)CC2)c(C)n1 | . | . | . | -5 | 0.4
COC1CCCN(C(=O)c2ccc(OC3CCN(CCc4ccccc4)CC3)cc2)C1 (centres undefined) | -9 | 4% | . | -4 | -6.6
CCc1ccc(C2C(C#N)=C(N)SC(N)=C2C#N)cc1 | 2 | 7% | -2 | 3 | -6.8
O=C(Cc1cccs1)NCc1cccc(C(F)(F)F)c1 | . | . | . | 5 | 1.5
COc1ccc(CCNC(=O)C(NC(=O)OCc2ccccc2)C(C)C)cc1OC (centres undefined) | . | -2% | . | -3 | 2.1
COc1ccc(OCCSc2nnc(CC(=O)Nc3cccc(Cl)c3Cl)n2C)cc1 | 14 | 3% | -17 | -4 | -0.9
COCCNC(C(=O)Nc1cc(Cl)cc(Cl)c1)c1ccccc1 (centres undefined) | 3 | 12% | -21 | -6 | 4.9
CC(C)(C)CN1CCC(n2nccc2NC(=O)c2ccccc2Cl)CC1 | . | . | . | ? | 0.4
COC(=O)c1ccc(COC(=O)CNC(=O)c2ccc(-c3ccccc3)cc2)cc1 | -10 | ? | -16 | 98 | 5.8
CC1(c2ccccc2)NC(=O)N(CC(=O)Nc2cc3c(cc2Br)OCCO3)C1=O (centres undefined) | . | . | . | 1 | -1.3
O=C(O)C1CC=CCC1C(=O)NCc1ccccc1 (centres undefined) | 5 | -10% | -30 | -10 | 0.7
CCN(CC)CCOC(=O)c1ccc(N/C=C(/C#N)c2nc(-c3ccc(OC)c(OC)c3)cs2)cc1 | . | 4.2µM* | . | 93 | -26
COc1ccc(S(=O)(=O)N2CCSC2C)cc1C (centres undefined) | . | . | . | 2 | 4.6
CC1CCc2nc3ccc(S(=O)(=O)N4CCC(C(=O)NCc5ccccc5Cl)CC4)cc3c(C(=O)O)c2C1 (centres undefined) | . | . | . | -7 | -0.6
C/C(=N\NC(N)=O)c1ccccc1 | 2 | -5% | . | -6 | -3.8
CCC(=O)NCCN1CCN(C(=O)CC)CC1 | -1 | 5% | -15 | -4 | 0.3
N#Cc1c(N2CCOCC2)nc(N2CCCCC2)c2c1CCN(C1CCCCC1)C2 | 9 | 9% | -18 | 46 | 3.4
Cc1ccc2c(c1)c1nnc(SCC(=O)Nc3ccccc3C(F)(F)F)nc1n2CC(=O)O | -4 | 2% | . | 2 | 2.3
O=C(Cc1ccccc1)Nc1nccs1 | . | . | . | -9 | 0.9
Cc1ccc(/C=C(\NC(=O)c2ccccc2)C(=O)OCc2ccccc2)cc1 | -3 | 12% | -17 | 4 | -2.9
COC(=O)c1[nH]c2ccc(F)cc2c1NS(=O)(=O)c1ccc(OC)cc1 | -10 | -1% | -31 | -3 | -56
Cn1c2c(c(=O)n(C)c1=O)C(c1cccc([N+](=O)[O-])c1)Nc1ccccc1O2 (centres undefined) | 6 | -2% | -8 | 1 | 6.5
C=CCNc1nc(NCCO)nc(N2CCCC2)n1 | 6 | -8% | -28 | -4 | 0.0
Cc1ccnc2nc(C(=O)NCc3cccs3)nn12 | -5 | -6% | -6 | -5 | -2.3
CSc1nsc(SCC(=O)Nc2ccc3c(c2)OCCO3)n1 | -4 | -14% | -9 | 77 | 0.8
Cc1nc(C)n(CC(=O)N2CCCC(C(=O)c3ccc(C(F)(F)F)cc3)C2)n1 (centres undefined) | 6 | -1% | . | -1 | -0.6
COc1cccc(C2/C(=C(\O)c3ccc(OC)c(OC)c3)C(=O)C(=O)N2c2cc(C)on2)c1 (centres undefined) | 2 | 2% | -48 | -2 | .
CCOC(=O)N1CCC(NC(=O)CS(=O)(=O)Cc2nc(-c3ccc(C)cc3)oc2C)CC1 | 0 | 0% | -34 | 3 | 2.1 | Arbovirus inh repeat=-8
CC(=O)O[C@@]12CO[C@@H]1C[C@H](O)[C@@]1(C)C(=O)[C@H](O)C3=C(C)[C@@H](O)C[C@@](O)([C@@H](OC(=O)c4ccccc4)C12)C3(C)C (some centres undefined) | . | . | . | 0 | 7.0
C/C(=N/NC(=O)CN1CCN(S(=O)(=O)c2ccc(Br)cc2)CC1)c1ccncc1 | . | 0% | . | -5 | -3.8
COc1ccc(Cl)cc1N(CC(=O)NCC(C)C)S(=O)(=O)c1ccc(C)c([N+](=O)[O-])c1 | -2 | 3% | -2 | -1 | 0.4
Cc1ccc(N=CC=C2OC(C)(C)C(C)(C)O2)c(C)c1 | -8 | -2% | 13 | 3 | -12
Cc1cc(C)cc(NC(=O)Cn2cc3c(n2)CCCCC3)c1 | -9 | . | -24 | 1 | 1.3
O=C(O)CCCN1C(=O)C2C3CC(C2C1=O)C1C(c2ccccc2)c2sc(=O)[nH]c2SC31 (centres undefined) | 1 | 6% | . | -1 | 1.6
CCOC(=O)Cn1c(=O)c(C#N)cn(C(C)C)c1=O | . | -8% | . | 17 | -0.7
CC1CCCN(S(=O)(=O)c2ccc(C(=O)Nc3nnc(-c4ccncc4)o3)cc2)C1 (centres undefined) | -4 | -5% | . | . | 2.4

The closing three compounds of the section above are carried over, then new ones follow.
SMILES | Arbovirus inh | Mtb growth | YopH PTP inh | Mtb betalactam | RecA splice inh | others
O=C(O)CCCN1C(=O)C2C3CC(C2C1=O)C1C(c2ccccc2)c2sc(=O)[nH]c2SC31 (centres undefined) | 1 | 6% | . | -1 | 1.6
CCOC(=O)Cn1c(=O)c(C#N)cn(C(C)C)c1=O | . | -8% | . | 17 | -0.7
CC1CCCN(S(=O)(=O)c2ccc(C(=O)Nc3nnc(-c4ccncc4)o3)cc2)C1 (centres undefined) | -4 | -5% | . | . | 2.4
Cc1nn(Cc2ccc(Cl)c(Cl)c2)c(C)c1NC(=O)c1cc(CC(C)C)on1 | -14 | 63% | -35 | -5 | -2.2
O=C(Nc1nnc(CCc2ccccc2)s1)C1CCCO1 (centres undefined) | -1 | -1% | -9 | 16 | 0.6
COc1ccc2c(c1OC)C(=O)OC2Nc1ncccc1C (centres undefined) | 5 | -9% | -2 | -1 | -1.3
O=C(N/N=C/C(Br)=C/c1ccccc1)c1ccccc1F | . | . | . | 86 | 1.6
O=C(N[C@H](C(=O)O)c1ccccc1)C1CCC(Cn2cnc3ccccc3c2=O)CC1 (some centres undefined) | . | -15% | . | -7 | -3.2
CC(NC(=O)CCC1COc2ccccc2O1)c1ccccc1 (centres undefined) | 8 | -10% | -38 | -2 | -0.2
C=CCN1CCN(C(=O)c2oc3ccccc3c2C)CC1 | . | . | . | 3 | 0.8
COc1cccc(/C=N/NC(=O)c2cc3c(OC)ccc(OC)c3[nH]2)c1O | . | . | . | 7 | 1.5
Cn1nnc(NCc2cc(Br)ccc2OCc2cccs2)n1 | 1 | 5% | 2 | -7 | 2.7
O=C1CN(C(=O)c2c(F)cccc2F)C(c2ccc(F)cc2)c2cc(F)ccc2N1 (centres undefined) | . | . | . | -7 | 5.9
COC(=O)c1ccc(-n2c(C)cc(C(=O)CSc3ccc(NC(C)=O)cc3)c2C)cc1 | -7 | 8% | 7 | 56 | 7.6
CC(=O)N1CCc2cc(S(=O)(=O)CCC(=O)O)ccc21 | 2 | . | -2 | 14 | -1.2
COc1ccnc(CN(C)C(=O)C2CCC(=O)N(CCN(C)C)C2)c1 (centres undefined) | . | . | . | -4 | 0.8
Cn1cccc1C(=O)NCCc1ccc(Cl)cc1 | . | . | . | 5 | 0.0
CN(C)CCCOc1ccc(Cl)cc1Br | -6 | -9% | -28 | . | -0.9
CCC(CC)CN1C(Nc2ccccc2)=NC[C@@H]1C | . | . | . | -6 | -1.6
CCOC(=O)c1c(/N=C/c2cc(C)ccc2O)sc2c1CCN(C)C2 | 2 | -8% | -9 | 0 | -6.7
CCCCNC(=O)CSc1nc2ccc(Nc3nc(N4CCOCC4)nc(N4CCOCC4)n3)cc2s1 | . | . | . | 11 | 1.7
Cc1cccc(NC(=O)Cn2c(=O)n(Cc3ccccc3)c(=O)c3c(C)c(C)sc32)c1 | -1 | 41% | -30 | 86 | 1.9
COc1cc(NC2=CC(=O)CC(C)(C)C2)cc(OC)c1 | -4 | 2% | 0 | 10 | -0.6
CCN(CC)CCN1C(=O)c2oc3ccccc3c(=O)c2C1c1ccc(C)cc1 (centres undefined) | -1 | -4% | -39 | -12 | -2.8
C=CCn1c(CCNC(=O)c2ccccc2F)nnc1SCC(=O)Nc1ccccc1F | . | . | . | -25 | 3.1
O=C(CNC(=O)c1ccc(Cl)cc1Cl)NCCCn1ccnc1 | 9 | -3% | -21 | -11 | -1.7
CSc1ncccc1C(=O)N1CCCC(Nc2ccc(C)c(C)c2)C1 (centres undefined) | . | . | . | -5 | -1.9
CCCCc1ccc(-c2csc(/C(C#N)=C/c3ccco3)n2)cc1 | 11 | 19% | -64 | 2 | 3.6

Looked up one by one from above, three records:
SMILES | Arbovirus inh | Mtb growth | YopH PTP inh | Mtb betalactam | RecA splice inh | others
O=C(CNC(=O)c1ccc(Cl)cc1Cl)NCCCn1ccnc1 | 9 | -3% | -21 | -11 | -1.7
CSc1ncccc1C(=O)N1CCCC(Nc2ccc(C)c(C)c2)C1 (centres undefined) | . | . | . | -5 | -1.9
COc1cc(NC2=CC(=O)CC(C)(C)C2)cc(OC)c1 | -4 | 2% | 0 | 10 | -0.6
